# Assay outcomes from PubChem BioAssay.
# eIF4H FP inh – inhibitors of RNA binding by human eIF4H; Q15056; eIF4H fluorescence polarization binding assay; inhibition, % at 35 µM; 290,000 compounds, 0.94% hits; AID 2012;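 active = 50% or more with normal probe brightness, or confirmed in later tests; inconclusive = above 50% with abnormal brightness, or retests that disagree; inactive = below 50% or failed in later tests; about a fifth of its hits are not listed in these tables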;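 also: calls also rest on retests at 20 µM and on dose response follow-up; 0% = protein and probe with vehicle and 100% = probe without protein; strong numbers were not always called active; many hits fall short of the cut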
# HIV Env fusion – HIV envelope-mediated fusion inhibition | inhibition, % at 12.3 µM | 360,000 compounds, 1.1% hits | HeLa-JRFL Env/CEM21 cell fusion, luciferase;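 active = mean replicate inhibition score of at least 50 and every replicate individually at or above 50; inconclusive = only one of the two criteria met; inactive = mean below 50 and not all replicates reaching 50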;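 also: 0% = plate neutral controls and 100% = maraviroc near 300 nM; one replicate is shown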
# Yeast UUG start – modulators of start codon recognition fidelity in yeast | S. cerevisiae UUG-firefly luciferase reporter, luminescence/redox ratio | activity score, % at 18.7 µM | 350,000 compounds, 0.13% hits | AID 602363;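 active = replicate mean at a twofold rise or more, about +100% in these data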;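 also: firefly luciferase made from a UUG start codon reports start codon fidelity; reporter light over untreated wells divided by growth signal over untreated wells; some hits fall short of that in this replicate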
# Rce1 inhib – yeast Ras-converting enzyme inhibition. calls only. AID 2563. 290,000 compounds, 0.27% hits. yeast membranes, quenched prenylated peptide cleavage fluorescence. Q03530;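 active = fall in fluorescence gain of 50% or more versus controls, with final raw signal at or below 3038400; inconclusive = same 50% fall but final raw signal above 3038400; inactive = fall in fluorescence gain under 50%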;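 also: plate controls were neutral control wells for no effect and wells lacking membranes for full effect; tested at 10 µM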
# MT1-MMP act inh – inhibitors of human MT1-MMP activation; P50281; HT1080 RFP-PRO-GFP cells, GFP/RFP ratio fluorescence, overnight; percent of plate control window, DMSO zero; 360,000 compounds, 0.061% hits; GFP/RFP ratio change, % at 20 µM;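 active = GFP/RFP ratio change of at least 30% with cell ATP level not reduced by more than half and red fluorescence within 50% of control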; also: strong numbers were not always called active
#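 Assay system: HT1080 RFP-PRO-GFP cells | Dosing: 20 µM single dose, 1% DMSO | Incubation: Cells overnight before dosing, compound overnight, 37 °C, 5% CO2 | Evaluation: GFP/RFP fluorescence ratio | Control set: DMSO-only wells and HT1080 RFP-L50D-GFP cell wells as references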
# CSC inhib – cancer stem cell inhibition; cancer stem cell-like cells viability, luminescence; inhibition, % at 7.5 µM; 300,000 compounds, 1.1% hits; AID 2717;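 active = mean at 75% or more and at least half the replicates too; inconclusive = mean and replicates disagree; tested in HMLE shEcad cells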;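 also: 0% = median of negative and 100% = median of positive control wells; the first replicate is given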
# PABP polyA inh – PABP-poly(A) binding inhibition; 290,000 compounds, 1% hits; P11940; PABP-poly(A) RNA binding, fluorescence polarization; AID 2014; inhibition, % at 35 µM;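 active = 50% or more with normal probe brightness, or confirmed in later tests; inconclusive = above 50% with abnormal brightness, or retests that disagree; inactive = below 50% or failed in later tests; about a fifth of its hits are not listed in these tables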;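 also: calls also rest on retests at 20 µM and on dose response follow-up; controls were probe without protein and protein plus probe with vehicle; some compounds called inactive have numbers as strong as hits; many hits fall short of the cut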
# Target sequence (P11940 whole entry, looked up): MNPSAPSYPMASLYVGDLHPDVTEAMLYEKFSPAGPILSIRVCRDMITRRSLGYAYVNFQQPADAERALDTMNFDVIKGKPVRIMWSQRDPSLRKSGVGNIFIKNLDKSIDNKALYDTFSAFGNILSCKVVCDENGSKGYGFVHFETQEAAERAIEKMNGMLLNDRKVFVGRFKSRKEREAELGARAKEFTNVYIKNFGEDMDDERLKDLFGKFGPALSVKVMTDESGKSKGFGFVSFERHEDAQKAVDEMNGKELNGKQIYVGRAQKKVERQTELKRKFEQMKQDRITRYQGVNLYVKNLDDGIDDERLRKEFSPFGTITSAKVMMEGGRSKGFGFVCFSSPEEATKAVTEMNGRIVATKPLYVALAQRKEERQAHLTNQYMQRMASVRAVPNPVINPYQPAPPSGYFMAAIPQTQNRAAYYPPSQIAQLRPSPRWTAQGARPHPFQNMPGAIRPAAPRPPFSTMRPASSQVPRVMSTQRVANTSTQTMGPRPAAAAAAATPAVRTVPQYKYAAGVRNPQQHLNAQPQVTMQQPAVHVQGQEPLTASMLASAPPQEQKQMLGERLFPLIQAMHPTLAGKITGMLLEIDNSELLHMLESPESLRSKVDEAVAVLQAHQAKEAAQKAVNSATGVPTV
# eIF4H FP inh retest – second read-out of eIF4H FP inh, no call of its own (marks repeat the call); inhibition, %; compound at 20 µM; confirmation average;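 mean of two retest wells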
# PABP polyA inh retest – also measured in PABP polyA inh; calls as there; inhibition, %; compound at 20 µM; confirmation repeats;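 mean of two retest wells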
# MT1-MMP act inh RFP – second read-out of MT1-MMP act inh, no call of its own (marks repeat the call); RFP signal change, %; measured here: RFP expression control read;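 0 = vehicle wells; hits needed this value within 50% of zero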
# Numbers without * were called inactive; i = inactive; ? = inconclusive; / = not tested or not shown. Not a hit list. About 2.9% of those tested had a hit in this group.
SMILES,eIF4H FP inh,HIV Env fusion,Yeast UUG start,Rce1 inhib,MT1-MMP act inh,MT1-MMP act inh RFP,CSC inhib,PABP polyA inh,others
CS(=O)c1ccccc1-c1nc(-c2cc(C(F)(F)F)cc(C(F)(F)F)c2)no1 (stereo unspecified),-8.4,/,/,i,-1.3,-5.9,-10.2,-0.8,
CS(=O)(=O)N1CCN(C(=O)c2ccc(Br)s2)CC1,-7.1,-23.9,-4.0,i,-6.1,-11.2,2.1,-3.7,
O=C(CN1CCCCC1)N/N=C/c1cccc(Cl)c1,13.0,-2.9,-21.1,i,0.8,2.9,16.5,-12.9,
COc1cc2c(cc1OC)C(C)N(CCc1ccc(Cl)cc1)CC2 (stereo unspecified),/,5.9,-1.9,i,-5.0,0.6,17.8,/,
COc1ccc2oc(C(=O)Nc3nnc(C)s3)c(C)c2c1,/,-28.9,-14.6,/,7.9,7.9,/,/,
O=C1Nc2ccccc2C1Cc1ccc(OC(F)(F)F)cc1 (stereo unspecified),4.2,40.7,/,i,-1.6,-2.1,/,3.1,
CN(C)c1ccc(C(=O)OCC(=O)NCCCc2ccccc2)cc1,3.3,1.9,-31.5,i,0.6,2.9,-16.1,3.8,
Cc1cccc(CSc2nnc([C@@H]3CCCN3)o2)c1,5.3,4.9,/,i,-1.4,-3.1,-9.6,1.2,
Cc1ccccc1CC1(CO)CCCN(C(=O)c2ccccc2N(C)C)C1 (stereo unspecified),-2.6,-16.7,4.7,i,-0.7,1.2,10.9,1.5,
CCN(C(=O)c1cccs1)c1nc(-c2ccc(OC)cc2)cs1,10.6,-6.2,/,i,0.9,-7.3,-7.7,0.6,
O=C(CNC1CCCCCC1)c1cccs1,-4.5,?,/,i,0.2,1.9,9.6,-5.2,
COc1cc(C(=O)NC(=S)Nc2ccc3c(c2)OCO3)cc(OC)c1OC,2.0,-30.0,-2.2,i,11.8,-1.9,-4.2,7.0,
CC(C)(C)[C@H]1C=C(C(=O)O)O[C@@H](OCCCCO)C1,/,7.8,-9.5,i,-1.0,4.5,-25.2,/,
COc1cc(OC)cc(C(=O)Nc2sc3c(c2C(N)=O)CCC3)c1,-1.3,-21.9,-35.2,i,-0.5,3.1,-1.5,5.4,
O=C1N=C(N2CCOCC2)S/C1=C\c1cccs1,0.5,-20.0,-19.1,i,-1.3,-0.1,-8.2,-1.5,
CN(C(=O)c1cccc(S(=O)(=O)N2CCCCC2)c1)C1CCS(=O)(=O)C1 (stereo unspecified),/,/,/,i,4.0,5.7,-1.9,/,
Cc1cc(C)n(CC(O)COCc2ccco2)n1 (stereo unspecified),12.9,-25.9,0.0,/,3.7,-5.2,-4.7,-5.9,
COc1ccccc1CNC(=O)C1CCCN(S(=O)(=O)c2cccs2)C1 (stereo unspecified),-1.9,-2.3,-12.8,/,0.5,1.7,-13.1,4.8,
O=C1CCN(S(=O)(=O)c2ccc(Br)cc2)CCN1,7.7,-10.1,-20.9,i,2.6,2.8,-8.5,?,
Clc1cccc(OCCN2CCNCC2)c1,93.2,0.1,/,i,3.3,4.7,-3.6,-3.0,eIF4H FP inh retest=-3.2;PABP polyA inh retest=-0.1
COc1ccc(N(C(=O)Cc2cccs2)C2C=CS(=O)(=O)C2)cc1 (stereo unspecified),8.8,16.3,-10.2,i,1.9,1.9,-6.1,-8.6,
C/C(=N\Nc1ncnc2sc(C)c(C)c12)c1ccccn1,?,11.0,-74.1,i,-76.3,-5.2,/,52.7*,PABP polyA inh retest=126.4*
O=C1c2ccccc2CCC12N=NCC2c1ccc(Br)cc1 (stereo unspecified),4.0,-51.2,/,i,-4.6,-1.6,-3.7,-0.7,
COc1ccc(C)cc1N(CC(=O)N1CCCCCC1)S(C)(=O)=O,-2.4,7.6,-6.4,i,-1.6,-1.0,-7.5,-6.7,
COc1ccc(C(C)=O)cc1COC(=O)c1ccc(OCc2c(C)noc2C)cc1,-12.6,/,0.4,i,-2.0,-2.2,21.0,-14.9,
O=S(=O)(Nc1cccc2cccnc12)c1ccccc1,11.2,2.2,-26.8,i,6.3,-7.6,43.1,-16.5,
COc1cc(CNc2ncnc3c2ncn3[C@H]2CN(Cc3cccs3)C[C@@H](CO)O2)cc(OC)c1OC,/,-9.1,1.7,/,-0.5,0.8,/,/,
CCOC(=O)C(=Cc1cn(C)c2ccc(S(=O)(=O)N(C)C)cc12)C(=O)OCC,-1.7,-8.9,-5.8,i,-11.1,-7.4,-5.7,-10.7,
CCOC(=O)c1ccc(NC2c3ccccc3C(=O)N2c2ccccn2)cc1 (stereo unspecified),-16.4,-36.4,-5.8,i,-10.6,-7.0,/,-6.0,
CCCCCOC(=O)NCC(O)c1ccccc1 (stereo unspecified),9.7,-73.9,-23.0,i,2.3,3.3,-3.9,-5.7,

# A section taken from the entries so far:
SMILES,eIF4H FP inh,HIV Env fusion,Yeast UUG start,Rce1 inhib,MT1-MMP act inh,MT1-MMP act inh RFP,CSC inhib,PABP polyA inh,others
CN(C(=O)c1cccc(S(=O)(=O)N2CCCCC2)c1)C1CCS(=O)(=O)C1 (stereo unspecified),/,/,/,i,4.0,5.7,-1.9,/,
Cc1cc(C)n(CC(O)COCc2ccco2)n1 (stereo unspecified),12.9,-25.9,0.0,/,3.7,-5.2,-4.7,-5.9,
COc1ccccc1CNC(=O)C1CCCN(S(=O)(=O)c2cccs2)C1 (stereo unspecified),-1.9,-2.3,-12.8,/,0.5,1.7,-13.1,4.8,

# The main list resumes with the 3 entries that preceded the break.
SMILES,eIF4H FP inh,HIV Env fusion,Yeast UUG start,Rce1 inhib,MT1-MMP act inh,MT1-MMP act inh RFP,CSC inhib,PABP polyA inh,others
CCOC(=O)C(=Cc1cn(C)c2ccc(S(=O)(=O)N(C)C)cc12)C(=O)OCC,-1.7,-8.9,-5.8,i,-11.1,-7.4,-5.7,-10.7,
CCOC(=O)c1ccc(NC2c3ccccc3C(=O)N2c2ccccn2)cc1 (stereo unspecified),-16.4,-36.4,-5.8,i,-10.6,-7.0,/,-6.0,
CCCCCOC(=O)NCC(O)c1ccccc1 (stereo unspecified),9.7,-73.9,-23.0,i,2.3,3.3,-3.9,-5.7,
COc1cccc(-c2coc3c(C)c4oc(=O)c(CCC(=O)O)c(C)c4cc23)c1,8.6,-3.2,9.6,i,7.0,-8.6,13.2,38.2,
COc1cccc(CN2CCNC(=O)C2CC(=O)N(C)C2CCCCC2)c1 (stereo unspecified),1.3,-8.6,8.3,i,-2.5,1.8,-4.5,1.9,
Cc1cc(Cl)c(S(=O)(=O)N2CCN(c3ccc(F)cc3)CC2)cc1OCC(=O)NC1CCCCC1,5.3,?,-12.8,i,-7.2,-24.5,2.6,2.5,
C=CCn1c(-c2ccc(OC)c(OC)c2)cs/c1=N\c1ccccn1,-2.4,/,2.5,i,-1.6,1.1,-14.7,1.1,
COc1ccc(S(=O)(=O)NCC(c2cccnc2)N2CCN(C)CC2)cc1OC (stereo unspecified),5.8,5.3,-16.9,i,-2.2,3.4,-5.7,2.5,
COc1cc(CC(=O)OCC(=O)Nc2ccc3c(c2)OCCO3)cc(OC)c1OC,-4.0,-19.4,/,i,1.6,1.3,-2.9,9.9,
COCCCNCCCCOc1ccc(C)cc1[N+](=O)[O-],10.3,/,-16.6,i,4.7,10.7,-2.6,4.9,
OCCOCCn1c(-c2ccccc2)nc(=S)c2c1CCCC2,-13.1,3.1,-9.1,i,-3.4,-2.6,2.7,-5.0,
O/N=C(\C[n+]1ccccc1)c1ccc(Br)cc1,-3.6,-2.9,-17.1,i,-1.0,0.2,-11.3,0.5,
N#Cc1ccccc1OCC(=O)Nc1c(C(=O)C2CC2)oc2ccccc12,-2.4,-127.0,10.7,/,-3.3,-0.7,-3.7,4.7,
CCC(C)C(NC(=O)OC(C)(C)C)C(=O)NC(C(=O)NC(C)C(N)=O)C(C)C (stereo unspecified),-9.1,1.5,/,i,0.0,1.5,-6.4,-4.7,
COc1ccc(N2C(=O)CC(NC34CC5CC(CC(C5)C3)C4)C2=O)c(OC)c1 (stereo unspecified),0.7,/,4.3,i,4.3,-3.0,-6.4,-6.2,
COc1ccc(NC(=O)COC(=O)/C=C/c2ccccc2[N+](=O)[O-])cc1,-0.2,/,2.5,i,3.0,2.1,-13.1,-1.3,
COc1ccc(NC(=O)C2CCN(S(=O)(=O)c3cccc4nonc34)CC2)cc1OC,5.5,9.4,-22.2,i,-0.5,2.2,-11.2,11.5,
CC(C)NC(=O)CN1CCN(c2ncccn2)CC1,-3.4,/,-14.4,i,0.3,-0.5,13.7,11.0,
CCCCn1c(SCC(=O)Nc2cc(C)on2)nc2ccccc2c1=O,-5.0,-12.1,-28.6,/,-2.9,0.4,2.0,-0.8,
O=C(CSc1ccc(-c2ccncc2)nn1)c1ccccc1,-7.8,-18.4,/,i,3.3,-0.3,2.5,-4.4,
COCCN(CCOC)Cc1cc(=O)oc2cc(C)c(C)cc12,/,2.1,-0.5,/,-0.3,0.5,/,/,
COc1ccc(C2(CNC(=O)c3ccc(OC)c([N+](=O)[O-])c3)CCCCC2)cc1OC,-1.3,-5.2,-1.8,i,-3.6,-4.8,-2.1,-7.7,
O=C(O)c1[nH]c2ccccc2c1CC(=O)N1CCOCC1,8.7,0.8,-1.9,i,0.3,2.8,-5.5,-3.6,
O=C(COC(=O)c1ccc(OC(F)F)cc1)NCCCN1CCCC1=O,4.0,0.6,/,i,0.8,0.2,4.0,-5.0,
Cc1ccn2c(C(=O)N/N=C/c3ccc(CNC(=O)C(=O)Nc4ccc(C)c(C)c4)o3)c(C)nc2c1,-11.9,/,/,i,/,/,/,-2.4,
C[C@@H]1CN[C@@H](CCO)/C1=C\c1ccccc1,/,-4.0,-26.5,/,3.6,6.8,/,/,
Cc1ccc(S(=O)(=O)NCCNc2ccccc2[N+](=O)[O-])cc1,6.1,12.8,/,i,4.1,1.7,-7.2,13.1,
CC(C)c1onc(C(=O)N2CCCCC2C)c1[N+](=O)[O-] (stereo unspecified),-2.1,-31.7,-16.9,i,-5.8,1.2,-10.6,4.9,
CC(C)Oc1ccc(C2CC(=O)N(c3ccc(N(C)C)cc3)C2=O)cc1 (stereo unspecified),5.2,/,-8.8,/,-3.3,-1.2,-8.5,-6.4,
Brc1ccccc1-c1cnco1,2.2,-7.6,-25.5,i,0.9,1.9,0.1,4.8,
O=C(COc1ccc([N+](=O)[O-])cc1)N1CCN(c2nnc(-c3ccccc3)c3ccccc23)CC1,3.5,21.1,/,i,-2.6,-21.6,-4.3,-13.0,
O=C(Cc1ccc(Br)cc1)N1CCN(c2ccc(F)cc2)CC1,2.1,/,-14.5,i,5.1,-2.9,-11.8,7.0,
Cn1cc(-c2csc(C(O)c3ccccc3)n2)cn1 (stereo unspecified),/,15.3,-39.2,/,-0.9,-0.4,/,/,
CCc1ccccc1NC(=S)N(CCCN1CCN(C)CC1)Cc1cccs1,5.0,-0.6,-62.0,i,4.0,-2.1,3.8,5.3,
CC(C)c1cc(=O)oc2c3c4c(cc12)CCCN4CCC3,14.5,/,-1.9,?,-48.3,5.0,-20.2,31.4,
COc1ccc(Cn2nnnc2C(c2ccc(N(C)C)cc2)N2CCC(C)CC2)cc1 (stereo unspecified),-7.2,/,27.7,i,-1.4,-4.9,-7.5,-7.7,
